Sfp inh = Sfp phosphopantetheinyl transferase inhibition | Q9F4F7 | Biochemical Sfp PPTase activity, qHTS | Potency, µM, without a hit: max response, negative = inhibition, actives largely listed as inhibitors | hit rate 3.5% among 310,000 | AID 1490; active means well fitted inhibition curve with a large enough effect; inconclusive means small, poorly fitted or top-dose-only effect, or another doubt; inactive means no such curve, though single readings can be large or run the other way;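 further: the enzyme is Sfp with the accession as filed and its product quenches rhodamine fluorescence; potency means the concentration at half of the fitted maximal effect; 0% = enzyme reaction without inhibitor and -100% = no enzyme wells; top concentration of the series not given in the record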
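Step 1, compound plus 15 nM Sfp-PPTase, 15 min, room temperature. Step 2, add rhodamine-CoA (5 uM) and BHQ-2-YbbR (12.5 uM). Step 3, read 525/598 nm fluorescence at 0 and 30 min.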
ClpP mod = qHTS Assay for Activators of ClpP; ATP-dependent Clp protease proteolytic subunit (Bacillus subtilis (strain 168)), P80244; purified B. subtilis ClpP, FRET peptide cleavage, 20 min; Potency, µM (top dose mostly 57.5 µM), without a hit: at the highest dose activity change, negative = active; hit rate 1.9% among 340,000; AID 651965, 2013; active = well fitted falling curve with a large enough effect; inconclusive = small, poorly fitted or top-dose-only effect; inactive = no such curve, though single readings can be large or run the other way; further: potency means the concentration at half of the fitted maximal effect; the source files actives as falling curves though it sought activators and does not explain the sign; nearly all actives have a fitted effect of over 65% in size; many hits overshoot -100%
Target sequence (P80244 whole entry, looked up): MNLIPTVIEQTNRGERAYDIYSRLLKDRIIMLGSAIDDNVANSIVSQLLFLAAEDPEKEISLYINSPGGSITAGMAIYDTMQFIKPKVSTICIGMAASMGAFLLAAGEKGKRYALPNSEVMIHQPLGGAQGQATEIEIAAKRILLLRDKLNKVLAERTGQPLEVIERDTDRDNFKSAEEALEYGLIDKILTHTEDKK
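FRET quenching reversal measured ClpP activation: 10 microg/mL B. subtilis ClpP at pH 8 with the FRET-FV decapeptide, read at 430 nm after 320 nm excitation. The 20-min minus 0-min signal was scaled between DMSO/no-enzyme wells and ADEP (5.8 microM final).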
gsp antag = antagonists of gsp mutant (McCune-Albright syndrome); gsp-mutant cells, cAMP HTRF, 30 min; control for the full effect not named in the record; AID 624288; Potency, µM (highest dose often 76.9 µM), for inactives: at the top dose activity change, negative = inhibition, actives largely listed as inhibitors; hit rate 0.4% among 340,000; active = falling curve of any shape with a large fitted effect; inconclusive = falling curve, mostly with a smaller effect; inactive = flat or rising curve; cell line not stated here;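 further: intracellular cAMP measured with PDE inhibitor Ro 20-1724 present during compound exposure; potency means the concentration at half of the fitted maximal effect; on the % scale 0 is the no-effect control and ±100 the full control effect; nearly all actives have a fitted effect of over 65% in size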
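G418-selected cells were plated in DMEM/10% FBS for 16-24 h at 37C, then treated with compounds plus the PDE inhibitor […] (300 uM solution added) for 30 min at 37C. Intracellular cAMP was measured by HTRF after 30 min lysis at room temperature.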
D2 agonist = human D2 receptor agonism in beta-arrestin assay; P14416; DiscoveRx PathHunter D2 beta-arrestin, luminescence, 90 min; 100% = 57 uM dopamine signal; activation, % (no concentration beside the values); hit rate 0.084% among 360,000; AID 624465; in the data active = activation above about 40%; inconclusive = about 15% to 40%; inactive = below about 15%; further: compound concentration not given in the record; the text of the record calls up to 30% inactive
Target sequence (P14416 whole entry, looked up): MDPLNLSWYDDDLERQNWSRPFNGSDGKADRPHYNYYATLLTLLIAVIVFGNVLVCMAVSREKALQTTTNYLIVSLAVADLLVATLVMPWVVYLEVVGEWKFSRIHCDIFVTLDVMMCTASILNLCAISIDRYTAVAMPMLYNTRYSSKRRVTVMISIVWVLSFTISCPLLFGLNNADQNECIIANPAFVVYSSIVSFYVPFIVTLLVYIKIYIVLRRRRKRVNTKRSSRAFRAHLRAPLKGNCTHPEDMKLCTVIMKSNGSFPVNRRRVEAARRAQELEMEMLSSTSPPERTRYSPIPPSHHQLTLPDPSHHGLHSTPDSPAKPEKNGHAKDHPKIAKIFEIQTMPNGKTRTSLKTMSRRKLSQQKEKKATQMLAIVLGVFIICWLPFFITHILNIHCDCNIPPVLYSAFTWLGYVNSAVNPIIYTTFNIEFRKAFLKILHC
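DiscoveRx PathHunter D2 beta-arrestin cells (2,100/well) attached overnight, then compound-stimulated 90 min at 37 C in HBSS/10 mM HEPES/0.1% Tween-20 buffer; beta-galactosidase complementation read by luminescence after 1 h at ambient temperature. Dopamine 57 uM final (EC100) as control.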
Menin MLL FP FL = menin-MLL binding inhibition, fluorescein peptide | Fluorescence polarization, fluorescein-MLL peptide displacement from menin | FP activity change, % at 61.4 µM | 290,000 tested, under 10 active | AID 1766; inconclusive = falling polarisation curve, or a change in total fluorescence; inactive = total fluorescence flat and polarisation flat or rising; no compound was filed as active; the % refers to the polarisation; negative = inhibition;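 further: % of control where 0% means no effect; inhibitors lower the polarisation; unlabelled MLL peptide was the positive control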
gsp ag = agonists of gsp mutant (McCune-Albright syndrome) | gsp mutant cells, cAMP HTRF, 30 min; control for the full effect not named in the record | Potency, µM (titrated, usually from 76.9 µM), for inactives: at the top dose activation (cAMP increase), actives largely listed as activators | hit rate 0.13% among 340,000 | AID 624287; active = well fitted activation curve with a large enough effect; inconclusive = small, poorly fitted or top-dose-only effect, or another doubt; inactive = no such curve, though single readings can be large or run the other way; cell line not stated here;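 further: phosphodiesterase inhibitor Ro 20-1724 added with compounds to block cAMP breakdown; potency means the concentration at half of the fitted maximal effect; nearly all actives have a fitted effect of over 60% in size; about a fifth of the inactives were tested at one dose only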
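Cells in DMEM/10% FBS with G418 were pretreated with compounds in DMSO plus […] (300 uM stock) for 30 min at 37C. cAMP was measured by HTRF (cAMP-d2 plus anti-cAMP antibody-K) after 30 min at room temperature.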
PINK1 modulator = changes PINK1 expression; PINK1 immunofluorescence, high-content cytometry, 24 h; Potency, µM (series often up to 76.6 µM), for the others: at the highest dose activation (PINK1 increase), hits mostly activators; hit rate 0.2% among 410,000; active = well fitted activation curve with a large enough effect; inconclusive = small, poorly fitted or top-dose-only effect; inactive = flat fitted curve, though single readings scatter; cell line not stated here;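 further: potency means the concentration at half of the fitted maximal effect; % of control where 0% means no effect; nearly all actives have a fitted effect of over 65% in size; a mitochondrial uncoupler was the plate control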
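Stable cell line, 250 cells/well, 12 h attachment; compounds pinned at 5 concentrations, 24 h; CCCP control. Fixed with nuclear dye, primary antibodies 12 h at 10 degrees C, secondary plus cell stain; laser-scanning cytometer read.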
Numbers without * were called inactive; & = joins results of further samples; [ ] = remark or other dose.

Screening Cc1ccc(NC(=O)CSc2nc3c(c(=O)[nH]2)CCC3)cc1C returned Sfp inh 19%, ClpP mod -2.4%, gsp antag inconclusive, D2 agonist 2.9, Menin MLL FP FL 3.3, gsp ag 7% and PINK1 modulator 2.1%[38.3 µM].
`COc1ccc(S(=O)(=O)n2cnc3ccccc32)c(C)c1` gave Sfp inh 9%, ClpP mod -0.2%, gsp antag -19%, D2 agonist -3.9, Menin MLL FP FL 0.6, gsp ag 13% and PINK1 modulator 0.9%.
Screening CCCn1c(SCC(=O)Nc2cccc(C)n2)nnc1-c1ccco1 returned Sfp inh 7%, ClpP mod -1.4%, gsp antag 1%, D2 agonist -3.2, Menin MLL FP FL 2.0, gsp ag -2% and PINK1 modulator -1.1%.
COc1ccc2nc(NC3=NCCC3)sc2c1 was read as Sfp inh 4%, ClpP mod 2.0%, gsp antag -1%, D2 agonist -2.6, Menin MLL FP FL 0.1, gsp ag inconclusive and PINK1 modulator 0.8%.
`CC(C)(C)NC(=O)COC(=O)c1c2c(nc3ccccc13)CCC2` gave Sfp inh 11%, gsp antag -12%, D2 agonist 11, Menin MLL FP FL -0.4, gsp ag -1%[15.4 µM] and PINK1 modulator 2.2%.
CN(C(=O)COC(=O)c1cncc(Br)c1)C1CCS(=O)(=O)C1 (stereo unspecified) was read as Sfp inh 2%, gsp antag 9%, D2 agonist -2.1, Menin MLL FP FL -5.9, gsp ag 3%[15.4 µM] and PINK1 modulator 1.3%.
`CNc1ccnc(-c2cccc(NS(C)(=O)=O)c2)n1` gave Sfp inh 25%, Menin MLL FP FL -1.4 and PINK1 modulator 0.2%.
Screening COc1cc(C(=O)N/N=C(\C)c2ccccn2)cc(OC)c1OC returned Sfp inh 6%, ClpP mod -1.7%, gsp antag 6%, D2 agonist 4.9, gsp ag 14%[15.4 µM] and PINK1 modulator 1.5%.
Screening COc1ccc2c(c1)O/C(=C\c1ccco1)C2=O returned Sfp inh 4.5µM*, gsp antag -29%, D2 agonist -6.1, Menin MLL FP FL inconclusive, gsp ag 8%[15.4 µM] and PINK1 modulator 1.4%.
Screening Cc1cc(C)cc(C(=O)NCCCc2ccccc2)c1 returned Sfp inh -16%, gsp antag -7%, D2 agonist -1.7, Menin MLL FP FL 0.2, gsp ag -63%[inhibitor] and PINK1 modulator -0.1%.
For COc1ccc(-c2cc(CNc3nc(NC(C)C)nc4cc(-c5ccccc5)sc34)on2)cc1 the results were ClpP mod inconclusive, D2 agonist 3.6 and PINK1 modulator 0.1%.
For O=C(COc1ccc(/C=N/NC(=O)c2ccccc2Br)cc1)Nc1ccccc1 the results were Sfp inh 17%, gsp antag -7%, D2 agonist 2.1, Menin MLL FP FL 0.2, gsp ag 13% and PINK1 modulator 1.2%.
For N/C(Cc1ccc(Cl)cc1)=N\OC(=O)c1ccccc1 the results were Sfp inh 9%, ClpP mod -0.6%, gsp antag 7%, D2 agonist inconclusive, Menin MLL FP FL 0.8, gsp ag 37% and PINK1 modulator 1.5%.
CC(C)CCN1C(=O)c2ccc(C(=O)Nc3ccccn3)cc2C1=O was read as Sfp inh 11%, ClpP mod -6.8%, gsp antag -17%, D2 agonist -5.9, gsp ag -8%[15.4 µM] and PINK1 modulator 3.0%.
`COC(=O)c1cnn(-c2ccc(F)cc2F)c1/C=N/NC(=S)NC(C)(C)C` gave Sfp inh 16%, ClpP mod -3.7%, gsp antag -9%, D2 agonist -4.7, Menin MLL FP FL -3.1, gsp ag 2%[15.4 µM] and PINK1 modulator 4.9%.
COc1ccccc1NC(=O)CN(C)S(=O)(=O)c1cccc2cccnc12 was read as Sfp inh 10%, ClpP mod 0.7%&1.4%, gsp antag 5%, D2 agonist -5.4, gsp ag 18% and PINK1 modulator 1.4%&1.9%.
CCCN(Cc1cc2ccc(C)cc2[nH]c1=O)C(=O)c1ccccn1 was read as Sfp inh inconclusive, ClpP mod inconclusive, gsp antag -5%, D2 agonist 1.4, Menin MLL FP FL 5.5, gsp ag 2% and PINK1 modulator -1.2%.
Cc1cccc2sc(NC(=O)C3CCN(S(=O)(=O)c4cc([N+](=O)[O-])ccc4Cl)CC3)nc12 was read as Sfp inh -11%, ClpP mod -4.1%, gsp antag -4%, D2 agonist inconclusive, Menin MLL FP FL 4.1, gsp ag -5% and PINK1 modulator 4.8%.
Screening Cc1ccc(C(=O)NCc2ccncc2)cc1S(=O)(=O)N1CCOCC1 returned Sfp inh 17%, ClpP mod -0.1%, gsp antag -13%, D2 agonist 2.5, Menin MLL FP FL 0.2, gsp ag -64%[inhibitor] and PINK1 modulator 0.9%.
Screening Cn1cnc(S(=O)(=O)NCc2ccc(Br)cc2)c1 returned Sfp inh 14%, ClpP mod 0.3%, gsp antag 12%, D2 agonist -4.4, Menin MLL FP FL 2.3, gsp ag 5% and PINK1 modulator -0.7%.
For CC(=O)Oc1ccc2oc(C)c(C(=O)N3CCOCC3)c2c1 the results were Sfp inh 4%, ClpP mod 1.3%, gsp antag 1%, D2 agonist -4.1, Menin MLL FP FL 0.6, gsp ag 0% and PINK1 modulator -0.6%[38.3 µM].
COc1cc(NC(=O)c2cc(S(=O)(=O)N3CCCCC3)ccc2N2CCOCC2)cc(OC)c1OC was read as gsp antag 13%, D2 agonist -1.6, gsp ag -14%[15.4 µM] and PINK1 modulator -0.5%.
Screening CC12CCC(C(=O)N(CC3CO3)C1=O)C2(C)C (stereo unspecified) returned Sfp inh 13%, ClpP mod 0.0%, gsp antag -5%, D2 agonist 1.0, Menin MLL FP FL -2.1, gsp ag 12%[15.4 µM] and PINK1 modulator 0.9%.
Screening O=C(Nc1ccccc1OC(F)(F)F)c1ccc([N+](=O)[O-])cc1 returned Sfp inh 3%, gsp antag 2%, D2 agonist 1.1, Menin MLL FP FL -1.2, gsp ag -13% and PINK1 modulator -2.0%.
For CCOc1ccc(NC(=O)CN(C)C(=O)C2CC(=O)N(Cc3ccco3)C2)cc1OCC (stereo unspecified) the results were ClpP mod -1.5%, gsp antag 10%, D2 agonist -0.3, gsp ag 5% and PINK1 modulator 0.3%.
`COc1ccc(Cl)cc1S(=O)(=O)N1CCC(C(=O)NCc2ccco2)CC1` gave Sfp inh -6%, ClpP mod -1.8%, gsp antag 4%, D2 agonist -4.5, Menin MLL FP FL -4.1, gsp ag -21% and PINK1 modulator -1.5%.
`Nc1nonc1-c1noc(-c2ccccc2Br)n1` gave Sfp inh 12%, ClpP mod -1.1%, gsp antag -1%, D2 agonist -1.1, Menin MLL FP FL 0.7, gsp ag 0% and PINK1 modulator -4.3%.
For CCOC(=O)c1cc2c(c(-c3cccc(C#Cc4ccc(OC)c(OC)c4)c3)n1)[C@@H](CCO)N(S(=O)C(C)(C)C)C2 (stereo partly specified) the results were ClpP mod -6.3%, D2 agonist -2.8 and PINK1 modulator -0.2%.
CCC(C(=O)OCC(=O)c1c(N)n(CC(C)C)c(=O)n(C)c1=O)c1ccccc1 (stereo unspecified) was read as ClpP mod -0.9%, gsp antag -20%, D2 agonist 4.0, gsp ag 8% and PINK1 modulator 1.6%.
`Cc1ccc(NC(=O)NCc2ccccn2)c(C)c1` gave Sfp inh 15%, ClpP mod -0.6%, gsp antag 4%, D2 agonist 3.5, gsp ag inconclusive and PINK1 modulator 0.0%.
Screening COc1ccc2cc(C(=O)C3CCCN(C(=O)c4sc(C)nc4C)C3)ccc2c1 (stereo unspecified) returned Sfp inh -6%, ClpP mod 4.1%, gsp antag inconclusive, D2 agonist 0.6, gsp ag -7% and PINK1 modulator 2.1%.
Screening O=C(COC(=O)COc1ccccc1[N+](=O)[O-])Nc1cccc(Br)c1 returned Sfp inh 12%, ClpP mod 0.3%, gsp antag -9%, D2 agonist -7.5, Menin MLL FP FL 4.1, gsp ag -13% and PINK1 modulator 2.6%.
O=C1NC(=S)CN1c1ccccc1 was read as Sfp inh 5.6µM*, ClpP mod -1.9%, gsp antag 2%, D2 agonist -9.7, Menin MLL FP FL 4.0, gsp ag -2% and PINK1 modulator 0.7%.
For CN1CCN(C(=O)CCC(=O)O)CC1 the results were Sfp inh 13%, ClpP mod -2.0%, gsp antag 11%, D2 agonist 0.1, Menin MLL FP FL -2.0, gsp ag inconclusive and PINK1 modulator -0.4%.
For Cc1c(C(=O)O)sc(S(=O)(=O)N2CCN(C(=O)Cc3ccc(F)cc3)CC2)c1C(=O)O the results were ClpP mod 2.7%, gsp antag 6%, D2 agonist -3.6, gsp ag -30%[inhibitor] and PINK1 modulator 0.6%.
`CCC(C)N1CCN(S(=O)(=O)c2ccc(NC(C)=O)cc2)CC1` (stereo unspecified) gave Sfp inh -8%, ClpP mod 1.3%, gsp antag 6%, D2 agonist -2.3, Menin MLL FP FL -0.3, gsp ag -80%[inhibitor] and PINK1 modulator 1.3%.
For Cc1nc(C)c(C(=O)C2=C(O)C(=O)N(CCCn3ccnc3)C2c2ccccc2)s1 (stereo unspecified) the results were Sfp inh -4%, ClpP mod -1.8%, gsp antag 12%, D2 agonist -2.2, Menin MLL FP FL -0.2, gsp ag 4% and PINK1 modulator -3.9%.
O=c1[nH]cc(S(=O)(=O)N2CCN(c3cccc(Cl)c3)CC2)c(=O)[nH]1 was read as ClpP mod -0.1%, gsp antag 0%, D2 agonist -3.3, gsp ag -1%[15.4 µM] and PINK1 modulator 2.3%.
`COc1nc(NCCN2CCOCC2)nc(Nc2ccccc2)n1` gave Sfp inh 19%, ClpP mod 0.7%, gsp antag 4%, D2 agonist -1.8, Menin MLL FP FL 3.8, gsp ag -7% and PINK1 modulator -0.7%.
Screening Cc1ccc(S(C)(=O)=O)cc1C(=O)NC(C)C1CC2CCC1C2 (stereo unspecified) returned Sfp inh 19%, gsp antag 2%, D2 agonist -1.0, gsp ag -7%[15.4 µM] and PINK1 modulator -0.3%.
